# VACV Venus inh = qHTS for Stage-Specific Inhibitors of Vaccinia Orthopoxvirus: Venus Reporter Primary qHTS. Vaccinia virus Venus reporter expression, fluorescence. 330,000 compounds, 0.46% hits. Potency, µM (doses to about 36.5 µM), without a hit: top-dose activity change, negative = inhibition, actives largely listed as inhibitors. AID 720580, 2013; active means well fitted inhibition curve with a large enough effect; inconclusive means small, poorly fitted or top-dose-only effect; inactive means no such curve, though single readings can be large or run the other way; tested in A549 cells; also: nearly all actives have a fitted effect of over 30% in size; inactives centre near -10
# Vaccinia mCherry = qHTS for Stage-Specific Inhibitors of Vaccinia Orthopoxvirus: mCherry Reporter Primary qHTS. Vaccinia virus mCherry reporter infection, fluorescence; about a quarter of the inactives have no number. Potency, µM (highest dose often 36.5 µM), inactives show top-dose activity change, negative = inhibition, actives largely listed as inhibitors. 310,000 compounds, 0.63% hits. AID 720579, 2013; active = well fitted inhibition curve with a large enough effect; inconclusive = small, poorly fitted or top-dose-only effect; inactive = no such curve, though single readings can be large or run the other way; tested in A549 cells; also: nearly all actives have a fitted effect of over 35% in size; inactives centre near -10
# * hit, by the source's call; i = inactive; ? = inconclusive; . = not tested or not shown; & = joins results of further samples. % is scaled to controls: 0 for no effect and ±100 for the full control effect; potency is read from the fitted curve at half-maximal effect.
Molecule,VACV Venus inh,Vaccinia mCherry
O=C1C2C(C(=O)N1/N=C/c1ccc([N+](=O)[O-])o1)C1C=CC2C12CC2 (centres undefined),-8%,-17%
O=C(Cn1cnc2ccccc2c1=O)NCCC(=O)Nc1ccc2c(c1)OCCO2,0%,-13%
Cc1c(NC(=O)C2CC(c3c(F)cccc3Cl)=NO2)c(=O)n(-c2ccccc2)n1C (centres undefined),-2%,i
CC(C)CN(C(=O)COC(=O)c1cnccn1)c1c(N)n(Cc2ccccc2)c(=O)[nH]c1=O,-2%,i
Cc1cc(NC(=O)c2ccc(NC(=O)C(C)C)cc2)no1,-1%,-11%
O=C1NC(=O)N(Cc2ccco2)C(=O)/C1=C\c1cccn1CCOc1ccc(Cl)cc1,22%,i
COc1ccc(SCCN2CCN(C)CCC2=O)cc1,-6%,-6%
CN(C(=O)CSc1nncc2ccccc12)c1ccccc1,-2%,-12%

# New compounds follow
Molecule,VACV Venus inh,Vaccinia mCherry
O=S(=O)(Nc1cccc(S(=O)(=O)N2CCOCC2)c1)c1cccs1,-13%,i
COc1ccccc1NCCC(=O)OCC(=O)NC1CCCCC1,-4%,-18%
Cc1ccc(NC(=O)NCc2ccc3[nH]c(C)cc3c2)cc1,8%,-1%
CC(=O)NC(Cc1cccc(F)c1)C(=O)NC1CCN(C(=O)c2ccc(C)cc2)CC1 (centres undefined),-9%,i
CCCc1nc2ccc(C(=O)OC)cn2c1Cc1ccccc1,-1%,16%
C[C@@H]1CN([C@@H](C)CO)C(=O)CCCn2cc(nn2)CO[C@H]1CN(C)C(=O)Oc1ccc2ccccc2c1,-18%,-25%
CNC(=S)Nc1cccc(C(C)=O)c1,-7%,i
O=C(NCCO)c1ccc2[nH]c3c(c2c1)CCCC3,-16%,-17%

# (more compounds)
Molecule,VACV Venus inh,Vaccinia mCherry
O=C1Nc2cc(C(=O)N3CCc4ccccc4C3)ccc2S/C1=C\c1ccccc1,-14%,-25%
CN[C@@H](CO)C(=O)NC[C@H]1O[C@@H](n2cc(C)c(=O)[nH]c2=O)C[C@@H]1O,-8%,-15%
Cc1ccc(NC(=O)c2ccc(CN3CCc4ccccc4C3)cc2)cc1,-21%,?
O=C(N/N=C/c1ccco1)C1CC1c1ccccc1 (centres undefined),-4%,-6%
O=C(Nc1ccc(S(=O)(=O)Nc2ncccn2)cc1)C1=COCCO1,5%,-8%
Cc1ccc(C)c(Cn2c(C(C)NC(=O)c3ccc(F)cc3)nc3ccccc32)c1 (centres undefined),-7%,-16%
C[C@H](CO)N1C[C@H](C)[C@@H](CN(C)S(=O)(=O)c2cccs2)OCc2cnnn2CCCC1=O,8%,-19%
COCCCNC(=O)CN(CCc1ccccc1)S(=O)(=O)c1ccccc1,0%,-19%

# Continuation.
Molecule,VACV Venus inh,Vaccinia mCherry
O=C1Nc2ccc([N+](=O)[O-])cc2C1(O)N1CCCCCC1 (centres undefined),-4%,i
CCOC(=O)C1=C(C)Nc2nc(C)nn2C1c1ccc(OC)c(OC)c1 (centres undefined),-1%,-9%
Cc1ccc(-c2cc(C(F)F)n3ncc(C(=O)N4CCN5CCCC5C4)c3n2)cc1 (centres undefined),?,.
CCC(C(=O)OC)n1cnc2c(nnn2-c2cccc(OC)c2)c1=O (centres undefined),-10%,i
COc1ccccc1-n1c([S-])c(C(=O)Nc2ccccc2C(F)(F)F)[n+]2ccc(C(=O)NCCO)cc12,-11%,-6%
Cc1ccc(Sc2ccc(NC(=O)c3ccc(F)cc3)cc2C#N)cc1,-8%,-9%
Cc1ccccc1-n1nc2c(c1NC(=O)c1cccc(F)c1)CS(=O)C2 (centres undefined),0%,10%
CC(C)C(O)c1ccc2c(c1)CN(C(=O)c1ccccc1-n1cccn1)CCO2 (centres undefined),2%,-9%

# Complete entries, quoted from the list. Values in the order: VACV Venus inh	Vaccinia mCherry
# Shown for `CCC(C(=O)OC)n1cnc2c(nnn2-c2cccc(OC)c2)c1=O` (centres undefined) = -10%	i
# Shown for `COc1ccccc1-n1c([S-])c(C(=O)Nc2ccccc2C(F)(F)F)[n+]2ccc(C(=O)NCCO)cc12` = -11%	-6%
# Shown for `Cc1ccc(Sc2ccc(NC(=O)c3ccc(F)cc3)cc2C#N)cc1` = -8%	-9%
# Shown for `O=C1Nc2ccc([N+](=O)[O-])cc2C1(O)N1CCCCCC1` (centres undefined) = -4%	i
# Shown for `Cc1ccccc1-n1nc2c(c1NC(=O)c1cccc(F)c1)CS(=O)C2` (centres undefined) = 0%	10%

# (continued)
Molecule,VACV Venus inh,Vaccinia mCherry
O=[N+]([O-])c1ccc(COP(=O)(O)OCc2ccc([N+](=O)[O-])cc2)cc1,2%,2%
C=CCNC(=O)NC(=O)COC(=O)/C(C#N)=C/c1cc(C)n(CCC(C)C)c1C,-7%,-10%
COc1ccccc1Nc1nc(C)nc2c1oc1ccccc12,-20%,i
O=C(Nc1ccc(C(=O)O)cc1)/C(=C\c1ccccc1)NC(=O)c1ccccc1,-7%,-12%
C[C@H]1CN([C@@H](C)CO)S(=O)(=O)c2ccc(Br)cc2O[C@H]1CN(C)C(=O)Cc1ccccc1,-22%,-20%
O=C(CN1CCCCC1)c1ccc(OC(F)F)cc1,-7%,-12%
COc1ccccc1N1CCN(c2nc(C)cc(=O)[nH]2)CC1,0%,-1%
O=C(c1ccccc1F)N1CCC(O)(c2cccnc2)CC1,3%,-8%

# Individual results from the list:
# Result for O=C(Nc1ccc(C(=O)O)cc1)/C(=C\c1ccccc1)NC(=O)c1ccccc1 in VACV Venus inh: -7%
# Result for C=CCNC(=O)NC(=O)COC(=O)/C(C#N)=C/c1cc(C)n(CCC(C)C)c1C in VACV Venus inh: -7%
# Result for C[C@H]1CN([C@@H](C)CO)S(=O)(=O)c2ccc(Br)cc2O[C@H]1CN(C)C(=O)Cc1ccccc1 in Vaccinia mCherry: -20%
# Result for COc1ccccc1N1CCN(c2nc(C)cc(=O)[nH]2)CC1 in VACV Venus inh: 0%
# Result for COc1ccccc1Nc1nc(C)nc2c1oc1ccccc12 in VACV Venus inh: -20%

# (further entries)
Molecule,VACV Venus inh,Vaccinia mCherry
COc1cc2sc3cc(NCc4ccc(C)o4)ccc3c(=O)c2cc1OC,-16%,?
Cc1ccc(S(=O)(=O)N2CCN(C(=O)CCc3c[nH]c4ccccc34)CC2)c(C)c1,-12%,-29%
Cc1cc2ccccc2nc1SCC(=O)NC1CCCC1,11%,-1%
CCOc1ccc(CN(C(=O)c2cc(=O)c3cc(C)cc(C)c3o2)C2CCS(=O)(=O)C2)cc1 (centres undefined),0%,2%
Cc1ccc(CN2CCN(Cc3cn[nH]c3-c3ccccc3)CC2CCO)o1 (centres undefined),-15%,i
COC(=O)Nc1ccc(S(=O)(=O)N2CCCCC2C(=O)NCc2ccco2)cc1 (centres undefined),?,i
Cc1sc2ncnc(NC(C)C(=O)O)c2c1C (centres undefined),-12%,-6%
Cc1ccc(NC(=O)Nc2nnc(N3CCCCC3)s2)c(C)c1,-8%,-7%

# Following part:
Molecule,VACV Venus inh,Vaccinia mCherry
CN(Cc1c(F)cccc1Cl)C(=O)c1ccc(NC(=O)CC2SC(N3CCCCC3)=NC2=O)cc1 (centres undefined),-22%,-1%
CC(=NC(C)C)C1=C(O)C(C)OC1=O (centres undefined),1%,-18%
Nc1nc(Nc2cccc(F)c2)nc(NCCO)c1[N+](=O)[O-],?,?
CN(Cc1ccccc1)C(=O)CCS(=O)(=O)c1ccc2c(c1)oc(=O)n2C,-11%&-3%,-4%&-9%
COc1ccc2[nH]c3c(c2c1)CCN1C(=O)C(CC(=O)NCCCN(C)C)C[C@H](C(=O)N2CCCCC2)[C@@]31C (some centres undefined),0%,i
COc1ccc(N(C)S(=O)(=O)c2ccc3c(c2)CC(C)N3C(=O)C2CC2)c(OC)c1 (centres undefined),-11%,-10%
CCN(CCCNS(=O)(=O)c1ccc2c(c1)CCN2C(C)=O)c1cccc(C)c1,-10%,i
Cc1cccn2c(=O)c3cc(C(=O)NC4CCCC4)c(=N)n(CCc4ccccc4)c3nc12,6%,-12%

# The list continues:
Molecule,VACV Venus inh,Vaccinia mCherry
Oc1ccccc1CN1CCCC(N2CCc3ccccc3C2)C1 (centres undefined),-9%,-15%
CCCC(=O)n1nc(-c2ccc(Cl)cc2)nc1SC,-5%,21%
Cc1coc2c1c(C)cc1oc(=O)cc(C)c12,-9%,0%
O=C(N/N=C/c1cc(Br)cs1)C(O)c1ccccc1 (centres undefined),0%,-11%
O=[N+]([O-])c1ccc(/C=N/Nc2ncc(-c3ccccc3)cn2)cc1,-6%,-2%
C/C=C/c1ccc(OCC(=O)Nc2cc(S(=O)(=O)N3CCOCC3)ccc2N2CCCC2)c(OC)c1,-28%,-19%
Cc1ccccc1NC(=O)Cc1nc(COC(=O)c2ccccn2)cs1,-10%,i
C=CCn1c(COc2ccccc2F)nnc1SCC(=O)Nc1cc(C)on1,6%,i

# Additional results:
Molecule,VACV Venus inh,Vaccinia mCherry
Cc1cccc(N2CCN(C(=O)c3cccc(NC4=NC5CS(=O)(=O)CC5S4)c3)CC2)c1C (centres undefined),?,?
CCCOc1ccc(Cc2c(O)nc(SC)[nH]c2=O)cc1,-5%,i
Cn1cc(-c2ccc(Cl)cc2)cc(C#N)c1=O,-16%,-8%
Cc1ccccc1NC(=S)N(C)Cc1cn(C)c2ccccc12,-16%,-2%
CC(=O)C1=C(C)N(Cc2ccccc2)C(=O)N[C@H]1c1ccco1,-1%,i
COC(=O)C(C)N(c1ccc(C)cc1)S(=O)(=O)c1c(C)[nH]c(=O)[nH]c1=O (centres undefined),-24%,-12%
O=C(Cn1c(=O)n(Cc2ccccc2)c(=O)c2sc3ccccc3c21)Nc1ccccc1,?,?
COc1ccccc1NC(=O)C1=C(C)Nc2nc(SCc3ccccc3Cl)nn2C1c1cccnc1 (centres undefined),?,?

# Next part.
Molecule,VACV Venus inh,Vaccinia mCherry
CCOc1cc(C(=O)N2CCn3c4c(c5cc(C)ccc53)CCCC42)cc(OCC)c1OCC (centres undefined),-2%,-6%
COc1ccc2c(c1)CCCC(Br)C2=O (centres undefined),-9%,i
COc1ccc(-n2c(=O)c3c4c(sc3n(CC(N)=O)c2=O)CCCCC4)cc1,-5%,i
CC1(C(=O)NS(=O)(=O)c2ccccc2)CCN1C(=O)Cc1ccc(Cl)cc1Cl (centres undefined),1%,7%
O=S(=O)(Nc1ccc(O)c2ccccc12)c1cccs1,1%,-9%
CCCNC(=O)Cn1nc(-c2ccc(F)cc2)c2cnc3ccc(F)cc3c21,-1%,-12%
CCSc1nnc(NC(=O)C2C3CCC(C3)C2C(=O)O)s1 (centres undefined),-11%,i
COc1ccc(Nc2ncnc3ccc(Br)cc23)cc1OC,-21%,?

# Going on with the list:
Molecule,VACV Venus inh,Vaccinia mCherry
Cc1ccc(CNC(=O)c2cc3c(=O)n4ccccc4nc3n(CC3CCCO3)c2=N)cc1 (centres undefined),-2%,?
COC(=O)C1=C(c2ccc(Cl)c(C(F)(F)F)c2)C[C@@H]2CC[C@H]1N2C(=O)NCCOc1ccc(OC)cc1,?,?
COc1ccc(Oc2cccc(Cl)c2CNC(=O)CC(C)(C)CC(=O)O)cc1,-21%,-18%
O=C(CNCC1CCCCC1)Nc1cccc(S(=O)(=O)N2CCOCC2)c1,-9%,i
Cc1ccc(C(=O)CSc2nnc3c4ccccc4nc(C(C)(C)C)n23)cc1,-8%,-4%
CCN(CC)CCCNC(=O)c1ccc2c(c1)NC(=O)C(CS(=O)(=O)Cc1ccc(F)cc1Cl)N2 (centres undefined),16%,-12%
COc1ccc(N(CC(=O)NC2CCCCC2)C(=O)CNC(=O)c2ccco2)cc1OC,-5%,-11%
Cc1cc(C(=O)NNC(=S)Nc2ccccc2C)cs1,-16%,i

# (cont.)
Molecule,VACV Venus inh,Vaccinia mCherry
OCCCn1c(CCCNc2nc(-c3cccc(Br)c3)cs2)nc2cc(Cl)c(N3CCCCC3)cc21,?,?
CC(C)CCNC(=O)CSc1nc2ccccc2nc1Cc1ccccc1,1%,-7%
Cc1cccc(-n2c(C)cc(C=C(C#N)C#N)c2C)c1,-9%,-3%
COc1ccc(S(=O)(=O)N(C)C[C@H]2Oc3c(NC(=O)Cc4ccccc4)cccc3C(=O)N([C@H](C)CO)C[C@@H]2C)cc1,-23%,?
CC(C)Oc1cccnc1N(C)C1CCN(Cc2ccccc2)CC1,-9%,i
COc1ccc(C(c2nnnn2C(C)(C)C)N2CCN(c3nc4ccccc4s3)CC2)cc1OC (centres undefined),-9%,-10%
COc1ccc(NC(=O)c2cncc(Br)c2)cc1S(=O)(=O)N1CCCCC1,-23%,?
COCCNC(=S)Nc1ccc2nsnc2c1,-5%,-7%

# Further structures.
Molecule,VACV Venus inh,Vaccinia mCherry
CCN(CC)c1ccc(N=CN2CCOCC2)cc1,-10%,-10%
COc1ccc(CNC(=O)OC2CC3CC2[C@H]2CCCCN2C3=O)cc1 (some centres undefined),8%,2%
O=C(NC1CCCC1)c1cnn(-c2ccc(F)cc2F)c1C1CCNCC1,6%,3%
CN(C)c1ccc(CNCCC(Cc2ccccc2)c2ccco2)cc1 (centres undefined),-11%,?
COc1ccc(CCCN2CCC(CN3C(=S)NC[C@@H]3Cc3ccccc3)CC2)cc1OC,-10%,-4%
Cc1ccc(S(=O)(=O)c2nnn3c2nc(NC(C)c2ccccc2)c2sccc23)cc1 (centres undefined),-16%,-26%
CCCOc1cccc(C2/C(=C(/O)c3ccccc3)C(=O)C(=O)N2CCN(C)C)c1 (centres undefined),1%,-7%
CCN(CC)C(=O)c1[nH]cnc1C(=O)Nc1ccc(C)cc1,-10%,i
O=C(COc1ccc(Cl)cc1)NCc1nnc(SCC(=O)Nc2ccccc2F)o1,-13%,i
CC1C(c2ccccc2)N(C)C(c2ccccc2)C(C)C1(O)C#Cc1ccccc1 (centres undefined),-20%,-24%

# Assay outcomes (PubChem BioAssay)
